FGF22 binding: FGF22 (human) thermal shift binding; recombinant FGF22 thermal shift, SYPRO orange fluorescence; percent of sucrose octasulfate shift, DMSO zero; Q9HCT0; calls only at 9.99 µM; 340,000 tested, 1.5% active;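 active means melting point raised past a set limit in the mean and every replicate; three in four hits are not shown here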
B2AR ag: agonists of human beta-2 adrenergic receptor inducing internalization; P07550; Am2.2-beta2AR cells, FAP receptor internalization, flow cytometry; reference of the scale not given here; response, % (no concentration beside the values); 340,000 tested, 0.43% active; AID 504454;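 active means response above a set limit, near 3 SD of response in nonfluorescent compounds, cut at about 42% in these data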;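 further: stock transfer was 100 nL into about 11 µL; a reference agonist was the positive control; negative values mostly stem from fluorescent compounds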
Target sequence (P07550 whole entry, looked up): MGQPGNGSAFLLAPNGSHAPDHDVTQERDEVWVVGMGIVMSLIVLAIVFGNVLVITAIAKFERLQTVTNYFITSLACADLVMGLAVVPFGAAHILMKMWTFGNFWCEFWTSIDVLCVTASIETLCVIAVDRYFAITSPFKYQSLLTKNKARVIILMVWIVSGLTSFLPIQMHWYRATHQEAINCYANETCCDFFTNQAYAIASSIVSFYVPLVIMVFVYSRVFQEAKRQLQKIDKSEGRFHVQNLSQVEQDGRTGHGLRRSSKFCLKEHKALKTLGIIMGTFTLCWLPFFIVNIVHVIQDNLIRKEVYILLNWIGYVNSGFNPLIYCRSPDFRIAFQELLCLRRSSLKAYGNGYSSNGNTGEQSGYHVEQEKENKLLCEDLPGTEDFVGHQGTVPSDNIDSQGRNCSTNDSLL
HNF4A DNA FP: change in binding of human HNF4 alpha to DNA | activity change, % at 10 µM | HNF4a-FITC DNA binding, fluorescence polarization, 1 h | P41235 | 360,000 tested, 0.3% active | AID 1224865; in the data active means activity change above about 30%, passing the limit was not always enough;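 further: controls were the assay level and a saturating level of protein; the project sought stronger binding though the title names inhibitors; some compounds called inactive have numbers as strong as hits; positive values seem to mean higher polarization but the record does not say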
ALR inh: inhibitors of human sulfhydryl oxidase ALR; AID 485317; 290,000 tested, 3.8% active; inhibition, % (concentration not given with the values); P55789; purified ALR, DTT oxidation, H2O2 HRP-luminol luminescence;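 active means mean and each replicate at 75% or more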;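 further: stock transfer was 7.5 nL into about 7.5 µL; 0% = neutral wells and 100% = wells with inactivated enzyme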
Target sequence (P55789 whole entry, looked up): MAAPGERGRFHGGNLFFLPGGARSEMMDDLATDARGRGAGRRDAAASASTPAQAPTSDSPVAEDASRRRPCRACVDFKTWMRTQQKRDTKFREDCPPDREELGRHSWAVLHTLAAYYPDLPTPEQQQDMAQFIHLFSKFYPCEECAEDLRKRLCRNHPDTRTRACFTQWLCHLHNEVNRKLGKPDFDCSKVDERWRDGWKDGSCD
rRNA inh HTS: inhibitors of bacterial rRNA selective over humanized ribosomes; AID 720706; 350,000 tested, 1.6% active; GFP signal change (wild-type ribosome), % (test concentration not listed); E. coli WT GFP vs humanized-ribosome RFP mutants, fluorescence, 24 h; active compounds read low; DMSO median 0, no signal -100;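 active means significant combined selectivity score with lowered wild-type GFP, culture density cut under 30%, mutant RFP and density less affected; inactive means any of these conditions unmet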; further: one replicate is shown; some compounds called inactive have numbers as strong as hits
UCH37 DUB inh: blocks the human deubiquitinase UCH37; Q9Y5K5; purified proteasome/UCH37, Ub-AMC cleavage fluorescence; inhibition, % (test concentration not listed); 330,000 tested, 0.33% active;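 active means mean of two replicates above 20%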;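 further: 0% = compound-free wells with enzyme and 100% = wells lacking proteasome; stock transfer was 100 nL into about 20 µL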
Target sequence (Q9Y5K5 whole entry, looked up): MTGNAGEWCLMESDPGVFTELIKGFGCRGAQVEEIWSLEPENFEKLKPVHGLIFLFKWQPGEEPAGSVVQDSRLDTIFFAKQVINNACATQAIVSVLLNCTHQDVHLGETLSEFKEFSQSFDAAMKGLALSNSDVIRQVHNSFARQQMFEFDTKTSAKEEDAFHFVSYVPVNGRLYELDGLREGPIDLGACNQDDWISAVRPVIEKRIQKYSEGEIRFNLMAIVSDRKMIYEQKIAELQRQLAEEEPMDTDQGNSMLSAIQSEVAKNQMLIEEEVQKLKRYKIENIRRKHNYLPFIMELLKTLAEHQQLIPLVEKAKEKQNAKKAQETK
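Material: Human UCH37 enzyme supplied as purified proteasome complex | Schedule: 30 min compound-proteasome preincubation then 25 min substrate reaction, room temperature | Detection: AMC fluorescence from Ub-AMC cleavage, excitation 355 nm, emission 460 nm | Benchmarks: Wells without proteasome as full block, compound-free enzyme plus substrate as uninhibited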
E coli growth: E. coli growth inhibition; Escherichia coli growth, OD600, 23 h; active compounds read low; OD600 absorbance (test concentration not listed); 330,000 tested, 0.21% active;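 active means OD600 absorbance below the run mean of sample wells minus 3.6 SD, in any replicate, cut at about 0.56 in these data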;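 further: stock transfer was 300 nL into about 60 µL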
rRNA inh HTS OD600: recorded beside rRNA inh HTS, whose call it bears; OD600 change, %; measured here: OD600 growth;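 optical density of the mix in the first replicate; 0 = DMSO median and -100 = no signal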
rRNA inh HTS RFP: recorded beside rRNA inh HTS, whose call it bears; RFP signal change, %; measured here: RFP humanized mutant strains;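 first replicate; 0 = DMSO median and -100 = no signal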
* marks the source's active call; other numbers are inactive results; i = inactive; x = not tested or not shown; + = active, no number. A portion of the library; rates above refer to the full screens.

SMILES | FGF22 binding | B2AR ag | HNF4A DNA FP | ALR inh | rRNA inh HTS | rRNA inh HTS OD600 | rRNA inh HTS RFP | UCH37 DUB inh | E coli growth
O=C(N/N=C/c1cccc([N+](=O)[O-])c1)C1CC(=O)N(c2ccc(Br)cc2)C1 (stereo unspecified) | i | -9 | 2.2 | -8 | 8 | 6 | 15 | x | x
Cc1nnc(SCC(=O)Nc2ncc3c(n2)CC(C)(C)CC3=O)s1 | x | -8 | -3.5 | 0 | x | x | x | 5.9 | 0.67
CN(C(=O)CN1C(=O)/C(=C/c2ccccc2F)SC1=S)C1CCS(=O)(=O)C1 (stereo unspecified) | i | -7 | 9.7 | -34 | 5 | -3 | -0.9 | 14 | 0.69
CN1C(=O)N(C)C2(C)CC1(C)N(C)C(=O)N2C | i | 8 | 1.2 | -3 | 5 | 11 | 14 | 1.7 | 0.63
O=C(Cn1c(=O)oc2cc(S(=O)(=O)N3CCc4ccccc43)ccc21)N1CCCCC1 | i | -1 | -1.9 | 88* | 8 | 6 | -1.5 | 1.5 | 0.75
O=C(N/N=C/c1cccnc1)c1cc(Br)ccc1O | i | 5 | 1.2 | -2 | 6 | -7 | -0.2 | x | x
COCCn1c(SCC(=O)Nc2cccc(OC)c2)nnc1-c1ccc(Cl)cc1 | x | -7 | -2.1 | 0 | x | x | x | 4.4 | 0.71
O=C(CN1C(=O)NC2(CCCC2)C1=O)NNC(=O)c1ccc(F)cc1 | i | -1 | -1.1 | 0 | 5 | 12 | 0.5 | 3.2 | 0.67
CCCN(Cc1nnc(-c2cccs2)o1)C(=O)c1cc(S(=O)(=O)N2CCOCC2)ccc1C | i | -4 | -2.5 | -23 | 4 | 7 | 4.9 | 0.5 | 0.66
CCCN(CCC)C(=O)CC(c1ccccc1)c1ccc(C)cc1O (stereo unspecified) | x | -3 | -2.2 | 18 | x | x | x | 4.7 | 0.66
Cc1ccnc(NC(=O)C2CCN(S(=O)(=O)c3ccc(C)c(C)c3)CC2)c1 | i | 1 | 0.5 | -12 | -3 | -15 | -0.1 | 4.6 | 0.68
O=C(/C=C/c1ccccc1)Nc1cccc(C(=O)N2CCCCC2)c1 | i | 3 | 3.5 | x | -13 | -3 | -4.5 | x | x
O=C(Nc1cccc(Cl)c1)Nc1nnc([C@@H]2C[C@H](O)[C@@H](CO)O2)s1 | i | x | 4.8 | x | 3 | 5 | 2.7 | x | x
CC1CCCCN1C(=S)Nc1ccc(S(=O)(=O)N2CCCCC2)cc1 (stereo unspecified) | i | x | -0.8 | x | 0 | -7 | 0.8 | x | x
O=C(NCc1ccccc1Cl)c1ccncc1 | i | 5 | -0.7 | 0 | 17 | 16 | 2.4 | 1.2 | 0.67
O=C(O)CCCN=C1CCCc2ccccc2N1 | x | 4 | -1.6 | 2 | x | x | x | 3.8 | 0.72
CC1CCN(CCCNC(=O)c2nn(C)c3c2CS(=O)(=O)c2ccccc2-3)CC1 | i | -3 | -1.2 | -2 | 7 | 3 | -1.4 | 2.1 | 0.72
CCOc1ccc(S(=O)(=O)NCCC(=O)Nc2ccncc2)cc1 | i | 3 | -3.9 | -6 | 8 | -4 | 0.0 | -0.6 | 0.7
O=C(Nc1ccon1)c1cc2ccccc2oc1=O | x | -13 | -0.6 | -5 | x | x | x | -13 | 0.73
CCOc1ccc(N(Cc2cc3ccc(C)cc3[nH]c2=O)C(=O)COC)cc1 | x | -6 | 2.5 | 18 | x | x | x | 1.8 | 0.76
CO[C@@]12[C@H](COC(N)=O)C3=C(C(=O)C(C)=C(N)C3=O)N1C[C@@H]1N[C@@H]12 | i | -3 | -1.1 | -3 | 13 | 10 | 1.9 | x | x
CCN1C(=O)N[C@@H](c2ccccc2)[C@H](C(C)=O)[C@H]1C | i | -6 | 1.4 | -9 | 3 | 6 | 0.5 | 1.9 | x
O=C1C=C(NCCOC23CC4CC(CC(C4)C2)C3)C2(CCCCC2)O1 | i | 6 | 0.4 | -11 | -2 | 0 | -1.6 | 0.6 | 0.66
CC(C)CC(C(=O)Nn1cnnc1)N1C(=O)c2ccccc2C1=O (stereo unspecified) | x | 7 | -3.4 | -10 | x | x | x | 3.6 | 0.69
Cc1c(NC(=O)c2cc3nc(-c4ccc(Cl)cc4)cc(C(F)(F)F)n3n2)c(=O)n(-c2ccccc2)n1C | x | -9 | -4.8 | 2 | x | x | x | 2.2 | 0.77
O=S(=O)(c1ccc2ccccc2c1)N1CCN(C2Cc3ccccc3C2)CC1 | i | 2 | 1.6 | -12 | -4 | -8 | -4.7 | 3.3 | 0.75
Nc1ccc(N2CCCCC2)c(S(=O)(=O)Nc2ccccc2Cl)c1 | i | 0 | 0.3 | 9 | -22 | -21 | -0.6 | 7.6 | 0.69
CCN(CC)C(=O)[C@H]1CC(CC(=O)NCCC2=CCCCC2)C(=O)N2CCc3c([nH]c4ccc(OC)cc34)[C@]12C (stereo partly specified) | i | -5 | -1.9 | x | -4 | -8 | 1.4 | -1.1 | 0.7
N#C/C(=C\c1ccc(N2CCOCC2)c([N+](=O)[O-])c1)c1nc2ccccc2[nH]1 | + | 1 | -0.6 | 4 | -15 | 10 | -11 | 6.8 | 0.7
O=C(CSc1nnc(NC(=O)c2ccc(F)cc2)s1)NCc1ccco1 | i | -1 | -0.9 | 7 | 6 | 2 | 3.0 | -15 | 0.73
CCn1nnnc1SCCSc1nnnn1CC | x | 2 | -2.7 | -2 | x | x | x | 0.0 | 0.66
O=C(O)c1ccccc1C=NN=C1c2ccccc2-c2ccccc21 | i | 10 | -3.0 | x | -1 | -2 | 4.3 | x | x
CN(Cc1ccccc1)C(=O)c1csc([C@@H]2O[C@H](CO)[C@@H](O)[C@H]2O)n1 | i | x | 0.0 | x | 2 | 15 | 0.9 | x | x
Cc1ccc(S(=O)(=O)N2CCC(C(=O)NCc3ccccc3CN3CCCC3)CC2)cc1C | i | 7 | 1.3 | x | -6 | -11 | 0.8 | 2.8 | 0.7
O=C(Cn1ccc([N+](=O)[O-])n1)NCc1ccco1 | i | -3 | 1.9 | -17 | 3 | 8 | -4.4 | 3.7 | 0.65
Cn1c(=O)c2c(nc(OCc3cccnc3)n2Cc2ccccc2)n(C)c1=O | x | -14 | -1.5 | 1 | -3 | -17 | -3.4 | -2.5 | 0.76
NC(=O)c1cc(S(=O)(=O)N2CCCCC2)cs1 | i | 3 | 0.4 | -2 | 5 | 17 | 1.4 | -2.3 | 0.71
O=C(O)C1=C[C@H](c2ccccc2)C[C@H](OCCCCO)O1 | i | -3 | -1.8 | 11 | 6 | 5 | 34 | 1.8 | x
COc1cc(NC(=O)n2ncc3cc(Cl)ccc32)cc(OC)c1 | i | -3 | 2.7 | x | 6 | 11 | -0.4 | 1.7 | 0.62
CC(OC(=O)c1cc2c(s1)CCCCC2)C(=O)NC(N)=O (stereo unspecified) | i | 0 | -3.6 | -9 | 5 | 9 | 0.9 | 4.0 | 0.72
Cc1nn2cc(-c3ncc(C(F)(F)F)cc3Cl)cnc2c1Br | i | 12 | -2.2 | x | 13 | 13 | 4.3 | 0.3 | 0.7
CCOC(=O)c1csc(NC(=O)CC2CCCC2)n1 | i | 0 | -0.7 | 21 | -20* | -2.9* | -2.2* | 0.9 | 0.69
CCOC(=O)C1CCN(C(=O)COC(=O)c2ccc3c(c2)C(=O)N(c2ccc(OCC)cc2)C3=O)CC1 | i | -6 | 6.3 | x | -1 | -2 | -0.4 | 2.6 | 0.72
CC1CCCCC1NC(=O)c1ccc(S(=O)(=O)NCc2ccco2)cc1 (stereo unspecified) | x | -12 | -1.2 | -3 | x | x | x | 4.4 | 0.69
CCN1CCN(C(=O)c2ccc(Sc3ccccc3Cl)c([N+](=O)[O-])c2)CC1 | x | 6 | 0.2 | 0 | x | x | x | 5.1 | 0.67

5 entries from above, set out differently.
Values run as follows: FGF22 binding | B2AR ag | HNF4A DNA FP | ALR inh | rRNA inh HTS | rRNA inh HTS OD600 | rRNA inh HTS RFP | UCH37 DUB inh | E coli growth
- CC(OC(=O)c1cc2c(s1)CCCCC2)C(=O)NC(N)=O (stereo unspecified)
 : i | 0 | -3.6 | -9 | 5 | 9 | 0.9 | 4.0 | 0.72
- O=C(O)c1ccccc1C=NN=C1c2ccccc2-c2ccccc21
 : i | 10 | -3.0 | x | -1 | -2 | 4.3 | x | x
- CCOC(=O)c1csc(NC(=O)CC2CCCC2)n1
 : i | 0 | -0.7 | 21 | -20* | -2.9* | -2.2* | 0.9 | 0.69
- CCn1nnnc1SCCSc1nnnn1CC
 : x | 2 | -2.7 | -2 | x | x | x | 0.0 | 0.66
- CCN1CCN(C(=O)c2ccc(Sc3ccccc3Cl)c([N+](=O)[O-])c2)CC1
 : x | 6 | 0.2 | 0 | x | x | x | 5.1 | 0.67

Next part.
SMILES | FGF22 binding | B2AR ag | HNF4A DNA FP | ALR inh | rRNA inh HTS | rRNA inh HTS OD600 | rRNA inh HTS RFP | UCH37 DUB inh | E coli growth
Cc1cc(C)c2c3c(sc2n1)C(c1cccc(F)c1)C(C#N)=C(N)O3 (stereo unspecified) | x | 9 | 1.4 | -8 | x | x | x | -6.1 | 0.79
COc1ccc2cc(C(=O)C3CCCN(C(=O)c4cc5nc(C)cc(C)n5n4)C3)ccc2c1 (stereo unspecified) | i | 3 | -27 | -23 | 1 | 2 | -1.3 | -248 | 0.74
CC(C)(CNC(=O)c1sc2cc(F)ccc2c1Cl)N1CCOCC1 | i | -10 | 3.5 | -2 | -2 | -9 | -0.5 | 2.0 | 0.7
COc1ccc(OCC(=O)N2CCN(C(=O)c3ccccc3)CC2)cc1 | x | 4 | 2.2 | -3 | x | x | x | -2.7 | 0.73
CCOc1ccc(C(=O)Nc2cccc3ncccc23)cc1Br | i | -1 | -0.4 | -2 | 14 | 4 | 3.5 | -3.2 | 0.7
COC(=O)N1CCCCC1c1cc(C(=O)Nc2ccc3c(c2)OCO3)no1 (stereo unspecified) | i | x | 0.5 | x | -5 | -6 | -1.1 | x | x
Cc1cc(-c2[nH]nc3c2C(c2ccc(Cl)cc2)C(C#N)=C(N)O3)c(C)s1 (stereo unspecified) | x | 13 | 1.8 | 45 | x | x | x | 0.9 | 0.67
O=C(NCC1CCCO1)c1ccc2c(c1)C(=O)N(c1cccc([N+](=O)[O-])c1)C2=O (stereo unspecified) | i | 30 | 1.7 | x | 0 | 6 | -2.2 | 2.4 | 0.66
O=C(CCN1C(=O)/C(=C\c2ccco2)SC1=S)Nc1ccc(C(=O)O)c(O)c1 | i | -7 | -20 | x | -4 | 14 | 10 | 11 | 0.71
O=S1(=O)CCN(Cc2ccccn2)CC1 | i | 1 | 1.1 | -7 | 10 | 8 | -1.4 | 3.1 | 0.69
Cc1ccc(-c2n[nH]c(=O)c3ccccc23)c(C)c1 | i | -7 | -0.4 | -1 | -24 | -38 | -9.2 | 1.1 | 0.65
CCCCN(C(=O)CSCC(=O)Nc1cccc(C)c1)c1c(N)n(CCCC)c(=O)[nH]c1=O | i | 1 | -2.8 | 0 | 5 | 3 | -2.1 | -6.0 | 0.67
Cc1ccc(-c2nc(N)c3c(-c4ccc(C)cc4)nn(C(C)(C)C)c3n2)cc1 | x | 3 | 0.8 | 1 | x | x | x | 3.6 | 0.73
O=C(CN1CCCC1)Nc1c(C(=O)C2CC2)oc2ccccc12 | i | -6 | -0.1 | 2 | 1 | -14 | 4.0 | 2.4 | 0.66
COC(=O)c1ccc(NCCc2csc(-c3ccc(C)cc3)n2)c([N+](=O)[O-])c1 | x | 7 | 4.6 | -21 | x | x | x | -1.0 | 0.74

Screening results from PubChem BioAssay.
